Screens from PubChem BioAssay.
PKD1 inh: inhibitors of human PKD1 kinase; 0.056% of 200,000 active; PKD1 kinase fluorescence polarization assay; Q15139; inhibition, %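 (about 10 µM by stock and volumes)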; AID 797;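 active = inhibition of 50% or more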;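 note: controls were vehicle for no effect and a reference inhibitor for full effect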
GALR2 agonist: agonists of human galanin receptor 2 (GALR2); O43603; GALR2-expressing cells, agonist activation read-out; activation, %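 (tested at 5 µM)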; 0.48% of 140,000 active;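 active = above mean plus 3 SD of all compounds, about 5% in these data, not always enough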;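 note: 0% = vehicle buffer wells and 100% = reference agonist at full effect; tested in CHO reporter cells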
Target sequence (O43603 whole entry, looked up): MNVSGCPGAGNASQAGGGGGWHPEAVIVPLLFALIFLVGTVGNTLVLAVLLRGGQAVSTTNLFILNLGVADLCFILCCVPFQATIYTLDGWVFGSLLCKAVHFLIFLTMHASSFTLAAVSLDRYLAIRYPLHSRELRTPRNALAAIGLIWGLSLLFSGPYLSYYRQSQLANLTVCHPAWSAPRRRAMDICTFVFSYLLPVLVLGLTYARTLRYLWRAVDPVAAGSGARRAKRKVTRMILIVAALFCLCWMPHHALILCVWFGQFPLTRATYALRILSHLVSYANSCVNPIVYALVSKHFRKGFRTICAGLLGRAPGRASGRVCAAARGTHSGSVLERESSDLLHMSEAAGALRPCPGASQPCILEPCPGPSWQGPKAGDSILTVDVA
Insulin prom inh: TRM-6 insulin promoter activity inhibition | 0.9% of 130,000 active | TRM-6 cells (human fetal islet line), insulin promoter-eGFP reporter, imaging; reporter expression induced with tamoxifen | inhibition, % at 2 µM;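 active = inhibition above the mean plus 3 SD, with well images judged a real hit on visual review, cut at about 60% in these data, passing the limit was not always enough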
RGS16-Gao: regulators of human RGS16-Galphao interaction. bead-based flow cytometry RGS16-Galphao binding, fluorescence; actives lie on both sides. AID 1441. 0.38% of 220,000 active. binding response (% of control), % at 10 µM;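 active = below 25% or above 175%, edge rows of some plates excepted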;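 note: Galphao activated by GDP with aluminum fluoride before binding; 100% = wells without compound and 0% = beads without RGS; some results beyond the cut were filed as inactive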
Target sequence (O15492 whole entry, looked up): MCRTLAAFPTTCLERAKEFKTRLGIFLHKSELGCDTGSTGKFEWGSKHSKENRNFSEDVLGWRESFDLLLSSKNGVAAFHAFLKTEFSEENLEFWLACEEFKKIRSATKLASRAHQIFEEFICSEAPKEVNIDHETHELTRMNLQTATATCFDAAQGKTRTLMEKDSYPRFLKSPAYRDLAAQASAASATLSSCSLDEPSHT
Target sequence (P09471 whole entry, looked up): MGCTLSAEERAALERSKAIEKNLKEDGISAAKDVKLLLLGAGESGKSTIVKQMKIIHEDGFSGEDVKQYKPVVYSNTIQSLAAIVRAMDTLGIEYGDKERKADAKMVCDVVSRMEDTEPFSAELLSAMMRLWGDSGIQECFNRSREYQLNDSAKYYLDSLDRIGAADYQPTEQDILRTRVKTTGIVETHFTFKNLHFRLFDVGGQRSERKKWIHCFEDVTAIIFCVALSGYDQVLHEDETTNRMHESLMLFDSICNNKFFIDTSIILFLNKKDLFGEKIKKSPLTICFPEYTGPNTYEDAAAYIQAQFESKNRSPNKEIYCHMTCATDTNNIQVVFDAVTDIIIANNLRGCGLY
HSV augment: HSV replication enhancement. HSV replication augmentation in cells, fold increase. maximum fold increase. 0.005% of 220,000 active. AID 1956;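 active = peak rise of 1.5-fold or more in the series; tested in PC3 cells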;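 note: first round at 10 µM; read as green reporter fluorescence; hits show the peak of a series up to 25 µM; 1 = signal of infected wells without compound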
Insulin prom inh cell count: recorded beside Insulin prom inh, whose call it bears; normalized cell count, %; measured here: cell count, toxicity; reference of the scale not given here;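 cells exposed to compound for 48 h; stained nuclei by imaging scaled within each plate; lower means fewer cells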
HSV augment primary fold: second read-out of HSV augment, no call of its own (marks repeat the call); fold increase; compound at 10 µM; measured here: primary screen fold increase 10 uM; tested in PC3 cells;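 GFP signal in the first replicate; 1 = infected wells without compound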
An asterisk follows results filed as active; i = inactive; . = no result given.

Molecule | GALR2 agonist | Insulin prom inh | HSV augment primary fold | RGS16-Gao | Insulin prom inh cell count | PKD1 inh | HSV augment
CCOC(=O)N1CCN(C2CC(=O)N(c3ccc(Cl)c(Cl)c3)C2=O)CC1 (stereo unspecified) | -2.9 | 34 | 0.84 | 101 | 89 | -4 | i
O=C(Nc1cc2c(cc1Br)OCCO2)c1ccco1 | 3.1 | 26 | 0.84 | 103 | 102 | -4 | i
CC(C)c1ccc(N(CC(=O)NCCSC(C)(C)C)S(C)(=O)=O)cc1 | -1.5 | 17 | 0.9 | 104 | 98 | -4 | i
CCCNC(=O)N1CCN(c2nc(C(C)C)c3c(c2C#N)CC(C)(C)OC3)CC1 | -1.1 | . | 0.62 | 102 | . | 0 | i
COC(=O)c1ccc(NC(=O)C(=O)N2CCN(C(=S)Nc3ccc(OC)cc3)CC2)cc1 | 0.4 | -14 | 1 | 107 | 84 | -4 | i
COc1cc(OC)cc(C(=O)N[C@H](C(=O)OCC(=O)NC(C)c2ccccc2)C(C)C)c1 (stereo partly specified) | -1.7 | 41 | 0.92 | 93 | 97 | -13 | i
CCOC(=O)COc1c(Cl)cc(C2NC(=S)NC(c3ccccc3)=C2C(C)=O)cc1OCC (stereo unspecified) | 1.6 | . | 0.84 | 107 | . | -7 | i
Nc1cc(=O)[nH]c(SCC(=O)Nc2cc(Cl)ccc2Cl)n1 | . | . | 0.86 | 110 | . | . | i
COc1cccc(-c2nc(CS(=O)CC(=O)O)c(C)o2)c1 (stereo unspecified) | -0.5 | . | 0.8 | 81 | . | -1 | i
CCOC(=O)c1nnc2ccnn2c1N | -0.1 | 36 | 1.1 | 112 | 61 | -4 | i
CC(C)NC(=O)C(=O)NCCN1CCN(C(=O)c2ccc(C(C)(C)C)cc2)CC1 | . | . | 0.94 | 103 | . | 8 | i
COC(=O)c1ccc(COn2nnc3ccccc32)cc1 | . | -64 | 0.98 | 114 | 67 | 9 | i
Cc1ccc(/C=N/NC(=O)C(c2ccncc2)N2CCOCC2)cc1 (stereo unspecified) | . | . | 0.9 | 99 | . | . | i
CC(C)C1=NOC(C(=O)N2CCC(N3CCC(C(=O)N4CCOCC4)CC3)CC2)C1 (stereo unspecified) | . | . | 0.97 | 109 | . | -4 | i
O=C(Cc1ccccc1)NCCn1ccc2ccccc21 | -1.4 | -30 | 0.91 | 103 | 125 | -9 | i
CC(Nc1ccc(Cl)cc1)C(=O)NN (stereo unspecified) | . | . | 0.99 | 97 | . | . | i
CCn1c(COc2cccc(C)c2)nc2ccccc21 | -0.1 | 56 | 0.89 | 102 | 149 | 3 | i
Cc1cccc(OCc2n[nH]c(=S)n2-c2ccccc2)c1 | . | 30 | 0.9 | 97 | 101 | -1 | i
COc1ccccc1Nc1ccc(Nc2ccccc2OC)nn1 | -0.7 | 41 | 0.87 | 102 | 92 | -2 | i
COc1ccc(-c2[nH]ncc2CN(C)C(C)c2ccncn2)c(F)c1 (stereo unspecified) | . | . | 1.1 | 89 | . | 2 | i
COc1cccc(-n2c(C)nc3cc(C(=O)O)ccc32)c1 | -2.8 | 6 | 0.77 | . | 180 | -4 | i
COc1ccc(CC2(CO)CCN(C/C=C/c3ccccc3OC)CC2)cc1 | . | 7 | 0.88 | 100 | 100 | -5 | i
Cc1cc(-c2nc(C)c(C(=O)NNS(=O)(=O)c3cccc(C(F)(F)F)c3)s2)no1 | . | . | 1.1 | 94 | . | . | i
Fc1ccc(NC(=S)NCCN2CCOCC2)cc1 | . | 41 | 0.98 | 101 | 129 | -2 | i
O=C(N/N=C/c1ccccc1OCC(=O)N1CCCC1)C(=O)Nc1ccccc1F | -0.1 | -19 | 0.93 | 106 | 67 | -4 | i
Cc1cccc(-n2ncc3c(NCc4ccco4)ncnc32)c1 | 2.4 | -109 | . | 58 | 90 | -4 | .
COCCCNC(=O)Cn1nnc(-c2ccccc2NC(=O)c2ccc(F)cc2)n1 | -3.1 | . | 0.98 | 53 | . | -2 | i
NC(=O)c1cc2ccccc2o/c1=N/NC(=O)c1cccs1 | . | . | 0.89 | 96 | . | -4 | i
O=C(COc1ccc(F)cc1Br)N1CCN(S(=O)(=O)/C=C/c2ccccc2)CC1 | . | . | 0.99 | 101 | . | -3 | i
COc1ccc(OC)c(/C=N/N=C2\SCC(=O)N2Cc2ccco2)c1 | -0.3 | -6 | 0.95 | 106 | 107 | -3 | i
CCC(CO)Nc1nc2ccc(Cl)cc2c2ccccc12 (stereo unspecified) | . | . | 0.85 | 134 | . | . | i
COc1cc(NC(=O)c2ccc(N)nc2)cc(C(=O)Nc2cccc(C(F)(F)F)c2)c1 | . | . | 0.89 | 97 | . | . | i
COc1cc(O)c(C(=O)/C=C/c2ccccc2)c(OC)c1 | . | . | 0.57 | 99 | . | . | i
COc1cccc(NC(=O)N2CCCC2C(=O)NC2CC2)c1 (stereo unspecified) | -3.5 | -14 | 0.94 | 85 | 162 | 8 | i
CCOC(=O)c1ccc(Oc2ccc(C(F)(F)F)cn2)cc1 | . | . | 0.97 | 105 | . | -2 | i
CCS(=O)(=O)c1nc(S(=O)(=O)c2ccc(Cl)cc2)c(NCc2ccccn2)s1 | . | . | 1 | 104 | . | 4 | i
O=C(Cn1nc(Cc2cccnc2)c2ccccc2c1=O)Nc1cccnc1Cl | . | -67 | 1 | 15 | 30 | 8 | i
C=CCCCCCCCCC(=O)Nc1c[nH]c(=O)[nH]c1=O | -1.5 | -3 | 0.68 | 99 | 99 | -2 | i
CCN(CC)CC(=O)Nc1ccc([N+](=O)[O-])cc1 | . | . | 1 | 102 | . | 0 | i
CNC(=O)Nc1nnc(C(C)(C)C)s1 | -2.8 | -28 | 0.95 | 100 | 161 | -5 | i
O=c1cc(O)c2sc(Nc3ccc(F)cc3)nc2[nH]1 | -0.6 | 35 | 1.1 | 97 | 143 | 7 | i
Cc1nn(-c2ccccc2)c2c1C(=O)N(c1ccccc1)C(=O)C(C)(C)C2 | -1.7 | 7 | 0.9 | 102 | 89 | 11 | i
CCc1ccc(C2(O)CC(C(F)(F)F)=NN2C(=O)Cc2ccc([N+](=O)[O-])cc2)cc1 (stereo unspecified) | 0.3 | -55 | 0.9 | 108 | 72 | -1 | i
CC(NC(N)=O)C(=O)OCC(=O)c1ccc(-c2ccccc2)cc1 (stereo unspecified) | . | 38 | 1 | 98 | 148 | 1 | i
COc1ccccc1/C=C/C(=O)NCC(=O)N/N=C/c1cccnc1 | 0.1 | -51 | 0.97 | 100 | 103 | 5 | i
CC(=O)c1cccc(CN2CCN(Cc3ccccc3)C(CCO)C2)c1 (stereo unspecified) | . | . | 0.93 | 101 | . | 1 | i
CC(C)C(=O)Nc1ccc(-c2csc(-c3ccccc3)n2)cc1 | -1.2 | 13 | 0.91 | 100 | 146 | -5 | i
CC(C)C(NC(=O)c1ccc(C(C)(C)C)cc1)C(=O)NCCc1ccccn1 (stereo unspecified) | . | . | 1.1 | 101 | . | -9 | i
COc1cc(C(=S)N2CCCCC2)ccc1O | -0.7 | 27 | 0.74 | 87 | 107 | -3 | i
CC1(C)CC(=O)C=C(NCCN2CCNCC2)C1 | 33* | -58 | 0.99 | 105 | 97 | 0 | i
O=C(c1cccc2cccc(O)c12)N1CCCCC1 | -1.6 | . | 0.97 | -120 | . | -1 | i
COc1ccc(C(=O)NCC(=O)O)cc1 | -2.8 | 24 | 0.66 | 91 | 149 | -15 | i
COc1ccc(C2N=C(c3ccccc3)C(C)(C)N2O)cc1OC (stereo unspecified) | -1.8 | 18 | 1 | 93 | 107 | 10 | i
CNc1oc(-c2ccc(Cl)cc2)nc1P(=O)(c1ccccc1)c1ccccc1 | -0.6 | . | 0.9 | 107 | . | 5 | i
Oc1[nH]c2ccccc2c1N=Nc1ccccc1 | . | . | 0.99 | 104 | . | . | i
COc1ccc(C(C(N)=O)c2ncc(C(F)(F)F)cc2Cl)cc1 (stereo unspecified) | . | . | 0.83 | 100 | . | -5 | i
Cc1ccc(S(=O)(=O)NNC(=O)c2cnn(-c3ccccc3)c2-n2cccc2)cc1 | -0.2 | . | 0.87 | 117 | . | 1 | i
COc1ccc(NC2=NC(=S)N(c3ccccc3C)C23CCCCC3)cc1 | 0.0 | 4 | 0.91 | 103 | 132 | -5 | i
NNc1ccc2nncn2n1 | . | . | 0.91 | 100 | . | . | i
O=C(CSc1ncn[nH]1)Nc1ccccc1Sc1ccccc1 | -1.7 | -32 | 0.74 | 103 | 122 | 8 | i

Other structures follow.
Molecule | GALR2 agonist | Insulin prom inh | HSV augment primary fold | RGS16-Gao | Insulin prom inh cell count | PKD1 inh | HSV augment
CCOc1ccc(CC(=O)Nc2nccs2)cc1 | . | 43 | 1 | 111 | 91 | -8 | i
O=C(N/N=C/c1cccs1)c1n[nH]c2c1CCC2 | 0.2 | . | 0.78 | 106 | . | 0 | i
O=C(COC(=O)c1cc(S(=O)(=O)Nc2ccccc2Cl)ccc1O)Nc1nc2ccccc2s1 | . | . | 0.96 | 103 | . | -6 | i
CCc1ccccc1NC(=O)CSc1ncn[nH]1 | -1.7 | 42 | 0.75 | 97 | 160 | -6 | i
CCC1Oc2ccc(C)cc2N(CC(=O)N(Cc2cccnc2)Cc2ccc(C)o2)C1=O (stereo unspecified) | -4.4 | -7 | 0.89 | 104 | 136 | -2 | i
Nc1nc2nc(-c3ccc(OCc4ccccc4)cc3)cc(C(F)(F)F)n2n1 | 5.0 | 3 | 0.81 | 87 | 91 | 7 | i
CCn1c(SCC(=O)Nc2nc(C)c(C)s2)nnc1-c1cccs1 | -2.8 | -23 | 0.94 | 121 | 147 | -9 | i
Cc1ccc(Cl)cc1NC(=O)COC(=O)C1CCCC1 | -0.8 | . | 0.93 | 104 | . | -11 | i
CCOC(=O)Nc1ccc2c(CN3C(=O)NC4(CCCC4)C3=O)cc(=O)oc2c1 | -1.4 | i | 1 | 101 | 39 | -4 | i
CCN(CC)S(=O)(=O)c1cccc(C(=O)NCCCn2ccnc2)c1 | . | . | 1 | 97 | . | . | i
Cc1cnn(-c2nc(-c3ccccc3)cc(-c3ccccc3)n2)c1 | . | . | 0.96 | 94 | . | -6 | i
Cc1csc2ncc(C(=O)Nc3ccon3)c(=O)n12 | 0.8 | -11 | 0.94 | 99 | 112 | -12 | i

The closing 4 entries of the part before lead into the next:
Molecule | GALR2 agonist | Insulin prom inh | HSV augment primary fold | RGS16-Gao | Insulin prom inh cell count | PKD1 inh | HSV augment
CCOC(=O)Nc1ccc2c(CN3C(=O)NC4(CCCC4)C3=O)cc(=O)oc2c1 | -1.4 | i | 1 | 101 | 39 | -4 | i
CCN(CC)S(=O)(=O)c1cccc(C(=O)NCCCn2ccnc2)c1 | . | . | 1 | 97 | . | . | i
Cc1cnn(-c2nc(-c3ccccc3)cc(-c3ccccc3)n2)c1 | . | . | 0.96 | 94 | . | -6 | i
Cc1csc2ncc(C(=O)Nc3ccon3)c(=O)n12 | 0.8 | -11 | 0.94 | 99 | 112 | -12 | i
O=Cc1cn(-c2ccccc2)nc1-c1cc2cc(O)ccc2oc1=O | 7.9 | 24 | 0.96 | 118 | 88 | 2 | i
O=C(/C=C/c1cc2c(cc1Br)OCO2)NCc1ccc(Cl)cc1 | -2.3 | . | 0.86 | 102 | . | -25 | i
CN(Cc1ccccc1F)c1ccc(S(=O)(=O)N2CCCC2)cn1 | . | . | 0.97 | 102 | . | -4 | i
COc1ccc(C(C(=O)NC2CCCC2)N(C(=O)c2ccco2)c2ccc3c(c2)OCO3)cc1OC (stereo unspecified) | -1.2 | -10 | 1.1 | 105 | 91 | -13 | i
O=C(CSc1nnc(-c2ccco2)n1CC1CCCO1)c1ccc(F)cc1 (stereo unspecified) | 0.0 | . | 1 | 97 | . | 0 | i
C=C(C)CN1C(=O)c2ccccc2C1=O | -2.8 | 37 | 0.7 | 102 | 100 | 6 | i
Cc1cc(C)c(NC(=O)NC(=O)c2cccc(F)c2)c(C)n1 | -0.7 | . | 0.85 | 201 | . | 4 | i
COc1ccc(NC(=O)CSc2nnc(-c3cccnc3)n2Cc2ccco2)c(OC)c1 | -0.9 | 19 | 0.8 | 97 | 96 | -5 | i
COC1=CC(=O)OC12CCCCC2 | -2.7 | . | 0.71 | 92 | . | 4 | i
Cn1c(=O)n(C)c2cc(/C=C(/C#N)C(=O)NCc3ccco3)ccc21 | . | . | 0.93 | 105 | . | 4 | i
O=C(O)COc1ccccc1/C=N/NC(=O)c1cc(-c2ccc(F)cc2)nc2ccccc12 | . | . | 0.87 | 98 | . | -11 | i
